Screening results as filed in PubChem.
Mtb H37Rv – M. tuberculosis H37Rv growth inhibitors, H37Rv strain (AID 1626) | M. tuberculosis H37Rv growth inhibition; higher % means a stronger effect | one-dose inhibition, % at 10 µM; IC50 in µM for titrated hits | actives 0.95% (n = 220,000);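 active = confirmed in a dose series; inconclusive = inhibition above 80% but not taken into the dose series; inactive = below 80% or under 30% at every dose of the series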;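 note: bacteria incubated seven days before Alamar blue readout; 0% = bacteria only wells and 100% = bacteria with antibiotic wells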
Mtb bLac sens – beta-lactam sensitization of Mtb H37Rv; inhibition, % at 25 µM; actives 0.27% (n = 330,000); M. tuberculosis H37Rv growth with meropenem, percent inhibition; hits of this screen are not shown here;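 active = about 74% or more and at least 40 points above the plate without the antibiotic, then above 30% in a dose series; inconclusive = first-round hits that could not be retested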;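 note: growth measured after seven days incubation then overnight dye step; 0% = bacteria only wells and 100% = bacteria with antibiotic; twin plates without the antibiotic show which effects depend on it; some results filed as inactive read as strong as hits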
YopH PTP inh – YopH (Yersinia) phosphatase inhibition; fluorescence Ex485/Em525; inhibition, %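 (about 10 µM by stock and volumes)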; actives 0.16% (n = 140,000);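 active = inhibition of 50% or more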;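 note: controls were vehicle for no effect and minimum signal wells for full effect; inactives centre near -20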
Arbovirus inh – arbovirus infection inhibition; arbovirus infection cell-based antiviral screen; inhibition, % at 10 µM; actives 0.37% (n = 200,000); AID 1251;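 active = inhibition from about 30%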;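 note: bluetongue infection of BSR cells; cell survival read as ATP light after 72 h; 0% = infected wells without compound and 100% = uninfected wells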
RecA intein inh – Mtb RecA intein splicing inhibition. P9WHJ3. cell-free RecA intein splicing, fluorescence. inhibition, %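 (about 9 µM by stock and volumes)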. actives 0.75% (n = 290,000). AID 2221; in the data active = inhibition above about 30%; inconclusive = no clear call, values can overlap the other calls;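 note: 0% = vehicle wells and 100% = reference inhibitor control wells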
Target sequence (P9WHJ3 whole entry, looked up): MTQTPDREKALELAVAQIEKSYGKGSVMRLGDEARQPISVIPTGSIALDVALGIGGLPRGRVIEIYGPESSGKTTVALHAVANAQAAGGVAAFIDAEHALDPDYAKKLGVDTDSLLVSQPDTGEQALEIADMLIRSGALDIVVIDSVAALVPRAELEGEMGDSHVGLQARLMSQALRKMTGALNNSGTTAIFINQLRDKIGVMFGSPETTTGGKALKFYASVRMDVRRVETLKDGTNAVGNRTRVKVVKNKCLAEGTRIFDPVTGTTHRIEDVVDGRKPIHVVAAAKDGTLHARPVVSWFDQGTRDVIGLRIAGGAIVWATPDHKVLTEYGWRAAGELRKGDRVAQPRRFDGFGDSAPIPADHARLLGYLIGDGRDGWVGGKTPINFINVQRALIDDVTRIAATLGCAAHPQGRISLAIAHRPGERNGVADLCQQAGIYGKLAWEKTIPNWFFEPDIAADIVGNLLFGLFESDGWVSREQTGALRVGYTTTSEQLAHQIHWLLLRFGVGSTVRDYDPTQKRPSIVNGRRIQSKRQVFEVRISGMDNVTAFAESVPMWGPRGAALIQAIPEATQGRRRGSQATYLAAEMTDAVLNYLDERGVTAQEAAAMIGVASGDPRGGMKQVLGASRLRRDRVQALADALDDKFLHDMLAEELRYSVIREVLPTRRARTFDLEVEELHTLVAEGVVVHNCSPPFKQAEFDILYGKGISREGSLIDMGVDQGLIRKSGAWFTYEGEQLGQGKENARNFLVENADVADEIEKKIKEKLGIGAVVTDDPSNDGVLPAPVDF
Arbovirus inh repeat – recorded beside Arbovirus inh, whose call it bears; inhibition, %; measured here: 10K subset replicate screen; many hits read low in the repeat;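 first of two repeat runs on a subset; 0% = infected and 100% = uninfected wells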
* marks the source's active call; other numbers are inactive results; & = joins results of further samples. Not all compounds are listed; rates above refer to the full screens.

Results for COc1ccc(CCn2c(-n3nc(C)cc3C)nc3c2c(=O)[nH]c(=O)n3C)cc1 ?
Mtb H37Rv: -5%; Mtb bLac sens: 5; YopH PTP inh: -36; RecA intein inh: 0.3

Results for Cc1ccc(C(=O)NCc2ccc(N3CCN(C)CC3)cc2)cc1C ?
Mtb bLac sens: -2; RecA intein inh: -2.3

Results for O=C(c1ccc(F)cc1)C(CCCCCC(CN1CCOCC1)C(=O)c1ccc(F)cc1)CN1CCOCC1 (centres undefined) ?
Mtb H37Rv: 2%; Mtb bLac sens: 3; YopH PTP inh: -56; Arbovirus inh: -6; RecA intein inh: 5.8

Results for CC1Cc2ccccc2N1C(=O)c1ccc(Br)o1 (centres undefined) ?
Mtb bLac sens: 0; RecA intein inh: -1.1

Results for Cc1nc(C)c(C(=O)NCc2ccc(Cl)cc2)o1 ?
Mtb H37Rv: -7%; Mtb bLac sens: -2; YopH PTP inh: -40; Arbovirus inh: 3; RecA intein inh: 1.0

What do the screens show for `COCC(=O)Nc1c(C(=O)Nc2cccc(OC)c2)oc2ccccc12`?
Mtb H37Rv: 1%; Mtb bLac sens: -2; YopH PTP inh: -5; Arbovirus inh: -1; RecA intein inh: 1.6

What do the screens show for `CC(=O)c1ccc(NC(=O)c2cc3nc4c(c(C(F)(F)F)n3n2)CCCC4)cc1`?
YopH PTP inh: -32; Arbovirus inh: 11

Results for Cc1cc(C)cc(NC(=O)CSc2n[nH]c(-c3cccnc3)n2)c1 ?
Mtb bLac sens: -10; RecA intein inh: -2.3

How did Cn1cc(Br)c(C(=O)Nc2ccc3c(C(F)(F)F)cc(=O)oc3c2)n1 do in these assays?
Mtb bLac sens: -3; RecA intein inh: -2.5

What do the screens show for `Cn1cnc([N+](=O)[O-])c1SCC(O)CCl` (centres undefined)?
Mtb H37Rv: 3%; Mtb bLac sens: -5; Arbovirus inh: 0

How did CCn1c(=O)cc(SCC(=O)NCCCN2CCN(c3ccccc3F)CC2)c2ccccc21 do in these assays?
Mtb H37Rv: 9%; Mtb bLac sens: inconclusive; YopH PTP inh: -6; Arbovirus inh: -12; RecA intein inh: 3.4

What do the screens show for `CN(c1ncc(C(F)(F)F)cc1Cl)N1C(=O)c2cccc([N+](=O)[O-])c2C1=O`?
Mtb H37Rv: 0%; Mtb bLac sens: 6; Arbovirus inh: 0; RecA intein inh: -1.9

How did Cc1ccc(C(=O)N2CCN(c3ccc(NC(=O)COc4ccccc4C)cc3)CC2)cc1 do in these assays?
Mtb H37Rv: 9.6µM*; Mtb bLac sens: 96; Arbovirus inh: -8; RecA intein inh: 0.2

How did Cc1ccc(/C(N)=N/OC(=O)CCC2CCCC2)cc1 do in these assays?
Mtb H37Rv: 1%; Mtb bLac sens: -4; Arbovirus inh: -3; RecA intein inh: 2.3

How did O=C(Cn1nnc2ccccc21)N1CCCCC1 do in these assays?
Mtb H37Rv: -6%; Mtb bLac sens: -11; YopH PTP inh: 6; Arbovirus inh: 6; RecA intein inh: 0.0

What do the screens show for `O=C(CSc1ccc(-c2cccc([N+](=O)[O-])c2)nn1)N1CCCCC1`?
Mtb H37Rv: -3%; Mtb bLac sens: -3; Arbovirus inh: 2; RecA intein inh: 0.3

Results for Cc1cc(=O)n2c(n1)OC(CO)C2 (centres undefined) ?
Mtb H37Rv: -7%; Mtb bLac sens: 5; YopH PTP inh: -3; Arbovirus inh: 5; RecA intein inh: -1.6

How did COC(=O)c1ccc(NC(=O)c2ccc(CN3CCOCC3)cc2)cc1 do in these assays?
Mtb H37Rv: -2%; Mtb bLac sens: 48; YopH PTP inh: -6; Arbovirus inh: 6; RecA intein inh: 1.0

Results for CCC(C)(C)n1nnnc1C(c1ccccc1F)N1CCN(C(=O)c2ccco2)CC1 (centres undefined) ?
Mtb bLac sens: 3; RecA intein inh: -0.3

How did CCN(CC(=O)Nc1ccc(NC(C)=O)cc1)C(=O)CCCc1nc2ccccc2c(=O)[nH]1 do in these assays?
Mtb bLac sens: -6; RecA intein inh: 1.5

The final 6 entries of the section before are carried over, then new ones follow:
How did O=C(Cn1nnc2ccccc21)N1CCCCC1 do in these assays?
Mtb H37Rv: -6%; Mtb bLac sens: -11; YopH PTP inh: 6; Arbovirus inh: 6; RecA intein inh: 0.0

What do the screens show for `O=C(CSc1ccc(-c2cccc([N+](=O)[O-])c2)nn1)N1CCCCC1`?
Mtb H37Rv: -3%; Mtb bLac sens: -3; Arbovirus inh: 2; RecA intein inh: 0.3

Results for Cc1cc(=O)n2c(n1)OC(CO)C2 (centres undefined) ?
Mtb H37Rv: -7%; Mtb bLac sens: 5; YopH PTP inh: -3; Arbovirus inh: 5; RecA intein inh: -1.6

How did COC(=O)c1ccc(NC(=O)c2ccc(CN3CCOCC3)cc2)cc1 do in these assays?
Mtb H37Rv: -2%; Mtb bLac sens: 48; YopH PTP inh: -6; Arbovirus inh: 6; RecA intein inh: 1.0

Results for CCC(C)(C)n1nnnc1C(c1ccccc1F)N1CCN(C(=O)c2ccco2)CC1 (centres undefined) ?
Mtb bLac sens: 3; RecA intein inh: -0.3

How did CCN(CC(=O)Nc1ccc(NC(C)=O)cc1)C(=O)CCCc1nc2ccccc2c(=O)[nH]1 do in these assays?
Mtb bLac sens: -6; RecA intein inh: 1.5

Results for Cc1cc(C)c(C(=O)NCCCN2CCOCC2)c(C)c1 ?
Mtb bLac sens: -13; RecA intein inh: 0.6

How did C[C@]12CCC(=O)CC1CCC1C2CC[C@@]2(C)C1CC[C@@]21CCO1 (some centres undefined) do in these assays?
Mtb bLac sens: inconclusive; RecA intein inh: 6.1

What do the screens show for `COc1ccccc1CNC(=O)c1cc(=O)c2ccccc2o1`?
Mtb H37Rv: -10%; Mtb bLac sens: 0; Arbovirus inh: 6; RecA intein inh: 4.1

How did COCCn1nnnc1CN1CCN(C(=O)c2ccco2)CC1 do in these assays?
Mtb bLac sens: -2; RecA intein inh: 1.1

What do the screens show for `CC(=O)N1c2ccc(S(=O)(=O)NCCC(=O)Nc3ncccc3C)cc2CC1C` (centres undefined)?
Mtb bLac sens: 0; RecA intein inh: -1.1

How did O=C(NCCN1CCOCC1)/C(=C\c1ccccc1F)NC(=O)c1ccccc1 do in these assays?
Mtb bLac sens: -9; RecA intein inh: -1.7

How did CCCC(=O)Nc1cc(-c2nn(C)c(=O)c3ccccc23)ccc1OC do in these assays?
Mtb H37Rv: 2%; Mtb bLac sens: -1; YopH PTP inh: -36; Arbovirus inh: -15; RecA intein inh: -3.8

What do the screens show for `CCC(C)(C)NC(=O)C(c1ccc(C)cc1)N(Cc1cccs1)C(=O)c1ccc2c(c1)OCCO2` (centres undefined)?
Mtb bLac sens: 5; YopH PTP inh: -28; Arbovirus inh: -31; RecA intein inh: -0.9

How did O=S(=O)(c1ccc(Cl)c(C(F)(F)F)c1)N1CCN(CC(O)COc2ccccc2F)CC1 (centres undefined) do in these assays?
Mtb bLac sens: 3; RecA intein inh: 4.1

What do the screens show for `CCN1CCN(c2nc(Nc3ccc(NC(C)=O)cc3)nc(Nc3ccc(NC(C)=O)cc3)n2)CC1`?
Mtb H37Rv: -9%; Mtb bLac sens: 3; RecA intein inh: -6.2

How did CCCNC(=O)OC[C@H]1O[C@H](CCO/N=C(\C)CCN2CCc3nc(-c4ccccc4)c(-c4ccccc4)cc3C2)C=C[C@@H]1Oc1ccc(OC)cc1 do in these assays?
Mtb bLac sens: -3; YopH PTP inh: -17; Arbovirus inh: -8; RecA intein inh: 10

What do the screens show for `Cc1n[nH]c(=O)nc1NCc1ccccc1`?
Mtb H37Rv: -3%; Mtb bLac sens: 7; YopH PTP inh: -16; Arbovirus inh: 4; RecA intein inh: 2.0; Arbovirus inh repeat: -3

How did Cc1ccc(C)c(OCc2cc(C(=O)N3CCN(C(=O)c4ccco4)CC3)no2)c1 do in these assays?
Mtb bLac sens: 4; RecA intein inh: 0.0

How did CCOC(=O)C(=CNc1ccc(C(F)(F)F)cc1)C(=O)OCC do in these assays?
Mtb bLac sens: 22; RecA intein inh: 2.5

What do the screens show for `O=C(CN1CCN(c2ccccc2)CC1)Nc1ccccc1Sc1ccccc1`?
Mtb H37Rv: 10%; Mtb bLac sens: 8; YopH PTP inh: -17; Arbovirus inh: 26; RecA intein inh: 19

Results for COc1ccc(/C=N/NC(=O)Cc2cccs2)cc1 ?
Mtb H37Rv: 0%; Mtb bLac sens: 2; RecA intein inh: -0.1

How did COc1ccc(Cn2nnnc2C(c2ccc(N(C)C)cc2)N2CCC(C(N)=O)CC2)cc1 (centres undefined) do in these assays?
Mtb H37Rv: -1%; Mtb bLac sens: -2; Arbovirus inh: 4; RecA intein inh: -5.1

What do the screens show for `COc1ccc(NS(=O)(=O)c2ccc(C)c(C(=O)NC3CCN(Cc4ccccc4)CC3)c2)cc1`?
Mtb bLac sens: 0; RecA intein inh: 3.3

What do the screens show for `O=[N+]([O-])c1ccc(Sc2cc[n+]([O-])c3ccccc23)c([N+](=O)[O-])c1`?
Mtb H37Rv: 4%; Mtb bLac sens: 98; RecA intein inh: -1.7

How did NC(=S)Nc1ccc2cn[nH]c2c1 do in these assays?
Mtb H37Rv: 3%; Mtb bLac sens: -5; Arbovirus inh: -2; RecA intein inh: 1.7

How did CN(C)CCCNC(=O)c1cc(C(=O)c2ccc(F)cc2)c[nH]1 do in these assays?
Mtb H37Rv: -5%; Mtb bLac sens: -5; Arbovirus inh: -1; RecA intein inh: 0.7

How did O=C(Cn1cc(C(=O)C2CC2)c2ccccc21)NC1CCCC1 do in these assays?
Mtb H37Rv: -3%; Mtb bLac sens: -11; YopH PTP inh: 23; Arbovirus inh: 4; RecA intein inh: 0.0

Results for COc1cccc(CC2(CO)CCCN(S(=O)(=O)N(C)C)C2)c1 (centres undefined) ?
Mtb H37Rv: -7%; Mtb bLac sens: 1; Arbovirus inh: 0; RecA intein inh: -1.3

How did COc1ccc(-c2[nH]c3ccccc3c2SCCN)cc1 do in these assays?
Mtb H37Rv: 4%; Mtb bLac sens: -8; RecA intein inh: 2.3

How did CN1C(=O)CC[C@H]1c1cccnc1 do in these assays?
Mtb H37Rv: -2%; Mtb bLac sens: -2; RecA intein inh: -3.4

How did COc1cc(CN2CCNC(=O)C2CC(=O)N(Cc2nccn2C)C(C)C)cc(OC)c1 (centres undefined) do in these assays?
Mtb H37Rv: 0%; Mtb bLac sens: -2; RecA intein inh: -1.6

How did CCc1nnc(NC(=O)CCC(=O)NC2CCCc3ccccc32)s1 (centres undefined) do in these assays?
Mtb H37Rv: 0%; Mtb bLac sens: 4; YopH PTP inh: -41; Arbovirus inh: 3; RecA intein inh: 6.0

Results for CCOC(=O)C(C)Sc1nc2ccccc2c(=O)n1CC1CCCCC1 (centres undefined) ?
Mtb H37Rv: 0%; Mtb bLac sens: -13; YopH PTP inh: -11; Arbovirus inh: 0; RecA intein inh: 13

What do the screens show for `Cc1ccc(NC(=O)c2ccc(S(=O)(=O)N3CCCC3)cc2)cc1`?
Mtb H37Rv: 8%; Mtb bLac sens: 0; YopH PTP inh: 36; RecA intein inh: 3.0

How did COc1ccc(NC(C)=O)cc1S(=O)(=O)Nc1ccc(C(=O)N2CCCC2)cc1 do in these assays?
Mtb H37Rv: 8%; Mtb bLac sens: -8; RecA intein inh: -0.1

How did CCCN(CCC)S(=O)(=O)c1ccc(C(=O)Nc2nnc(CSC)o2)cc1 do in these assays?
Mtb H37Rv: -13%; Mtb bLac sens: 67; YopH PTP inh: -19; Arbovirus inh: -15; RecA intein inh: -1.2

Results for CCN(c1ccccc1)S(=O)(=O)c1ccc(C(=O)Nc2nnc(-c3ccco3)o2)cc1 ?
Mtb H37Rv: 61%; Mtb bLac sens: 55; Arbovirus inh: -16; RecA intein inh: 2.4

How did CC(/C=C1\SC(=S)N(NC(=O)c2ccc(O)cc2)C1=O)=C\c1ccccc1 do in these assays?
Mtb H37Rv: 0%; Mtb bLac sens: 1; YopH PTP inh: 1; Arbovirus inh: 7; RecA intein inh: 8.2

What do the screens show for `CCCCOc1ccc(C(=O)Nc2cccc(C)n2)cc1`?
Mtb bLac sens: -3; YopH PTP inh: -52; Arbovirus inh: -30; RecA intein inh: 1.5

How did CC(=O)N1CCOc2ccc(S(=O)(=O)NCc3ccccc3Cl)cc21 do in these assays?
Mtb bLac sens: 2; RecA intein inh: -0.7

What do the screens show for `COc1ccc(-c2csc(NC(=S)NC(=O)/C=C/c3ccccc3)n2)cc1Br`?
Mtb H37Rv: -6%; Mtb bLac sens: 6; RecA intein inh: 0.2

Results for O=C(O)COCCN1CCN([C@H](c2ccccc2)c2ccc(Cl)cc2)CC1 ?
Mtb H37Rv: -6%&4%; Mtb bLac sens: -4; Arbovirus inh: 4; RecA intein inh: -0.9
